# From PubChem BioAssay
# H5N1 CPE – MDCK cell protection from H5N1 avian flu | inhibition, % at 50 µM | cytopathic effect, luminescence, 72 h; active compounds read high; no value below 0 was filed and about half of the inactive calls have no number; reference of the scale not given here | actives 0.07% (n = 96,000) | AID 740, 2007; in the data active means inhibition above about 25%
# Numbers without * were called inactive; i = inactive.
structure | H5N1 CPE
CC(=O)Nc1ccc2nc(-c3cccnc3)[nH]c2c1 | 0.4
CCCCn1c(N)c(N(CCC(C)C)C(=O)COC(=O)c2ccco2)c(=O)[nH]c1=O | i
COc1ccccc1C(c1nnnn1C(C)(C)C)N1CCCCCC1 (configuration not stated) | 0.8
O=C(CCCn1c(=O)[nH]c2cc(Cl)ccc2c1=O)NCCCN1CCCC1 | 0.9
COc1ccccc1NC(=O)c1cc(S(=O)(=O)N2CCOCC2)ccc1Cl | 2.5
Cc1ccccc1Cn1nc(C)c(NC(=O)c2sc3ccccc3c2Cl)c1C | i
CN(C)c1nc(N)nc(CSc2n[nH]c(-c3ccccc3)n2)n1 | 0.6
Cc1ccc(SCc2[nH]nc3c2C(c2ccc(C)o2)C(C#N)=C(N)O3)cc1 (configuration not stated) | 0.2
CC(=O)Nc1ccc(C(=O)CSc2nnnn2C(C)C)cc1 | i
O=C(c1ccccc1Oc1ccccc1)N1CCN(c2ccc(F)cc2)CC1 | 0.2
COCCCNC(=O)CCn1c(=O)c2ccccc2n(CC(=O)Nc2cc(Cl)ccc2C)c1=O | 2.9
COc1ccc(NC(=O)Cn2nnc(C(=O)NCc3ccccc3)c2N)cc1Cl | i
COC(=O)c1cc(NCc2ccccc2F)ccc1N1CCOCC1 | 0.6
O=C(c1cccc(Cl)c1)N(Cc1cccs1)C1CCS(=O)(=O)C1 (configuration not stated) | 0.7
O=C(CN1C(=O)C2CC=CCC2C1=O)NC1CCCc2ccccc21 (configuration not stated) | 0.3
Cc1cc2nc(SC(C)C(=O)O)[nH]c2cc1C (configuration not stated) | 0.7
N#CCC(=O)N1CCn2c1nc1ccccc12 | i
COc1cc2[nH]c(=S)n(NC(=O)CC(C)C)c(=O)c2cc1OC | 2.0
NC(=O)c1ccc(NC(=O)c2ccc3c(c2)OCO3)cc1 | i
CC(C)(C)OC(=O)N1CCC[C@@H]1C(=O)N1CCC(C(=O)O)CC1 | 2.0
COc1ccc(Nc2nc3ccccc3nc2NS(=O)(=O)c2cccs2)cc1 | i
O=C(c1cccnc1)N1CCN(S(=O)(=O)c2ccc3ccccc3c2)CC1 | 2.9
Cc1ccc(N)cc1CN1CCCC1=O | 0.9
O=C(OCC(=O)N1CCN(C(=O)c2ccco2)CC1)C1=COCCO1 | 1.0
CC(=O)c1c(C(C)=O)c(C)n(-c2ccc(N)cc2)c1C | 1.6
Clc1ccc(NC2=NCCC2)cc1Cl | 0.8
CCOc1ccc(-n2c(COc3ccccc3)nnc2SCC(N)=O)cc1 | 0.4
Cc1ccc(SCc2cc(=O)[nH]c(/N=C(\N)Nc3ccc(C)c(C)c3)n2)cc1 | 0.4
CCc1ccc(OCC(=O)NC(=S)Nc2ccc(C(C)=O)cc2)c(Br)c1 | 0.2
CCOC(=O)C1CCN(C(=O)CN(c2cc(OC)ccc2OC)S(=O)(=O)c2ccccc2)CC1 | i
CCOC(=O)c1nnc(-c2ccc(C)cc2)nc1Sc1ccccc1Cl | 0.5
CN1CCN(CCCNC(=O)Cn2ncc3c4ccccc4n(C)c3c2=O)CC1 | i
O=C(NCCN1CCN(Cc2ccccc2)CC1)c1cc2c(=O)[nH]c3ccccc3c2s1 | i
CC(C)Oc1cc(NC(=O)CSCC(=O)Nc2cccc(C(F)(F)F)c2)c(Cl)cc1Cl | 4.1
C=CCNC(=O)CSc1ccc(Cl)cc1 | 0.5
CCN1CCCC1CNC(=O)c1cc2c(=O)n(C)c3ccccc3c2n1C (configuration not stated) | 5.4
CN(CC1COc2ccccc2O1)c1nc(-c2cccnc2)nc2ccccc12 (configuration not stated) | i
COc1ccc(C2Oc3ccccc3N2C(C)=O)cc1 (configuration not stated) | 0.1
COc1ccccc1-n1c(N)c(C(N)=O)sc1=S | i
Cc1nn(-c2ccccc2)c2sc(C(=O)NNC(=O)COc3ccccc3)cc12 | i
COc1ccc(OC)c(NC(=O)CC(NCCC2=CCCCC2)C(=O)O)c1 (configuration not stated) | 0.2
CCCC(=O)Nc1cc(C(=O)N2CCC3(CC2)OCCO3)ccc1S(=O)(=O)c1ccc(C)cc1 | 0.7
CSCCC(NC(=O)OC(C)(C)C)C(=O)Oc1ccc2c(=O)c(-c3ccc4c(c3)OCCO4)coc2c1 (configuration not stated) | 0.5
CN(C)c1ccc(NC(=S)N(CCc2ccccc2)C2CC(=O)N(c3c(Cl)cccc3Cl)C2=O)cc1 (configuration not stated) | i
COc1ccc(NC(=O)N2CCC(c3ccccc3)C2)c(OC)c1 (configuration not stated) | 0.4
CCn1c(SCc2nc3ccccc3c(=O)[nH]2)nnc1-c1cccnc1 | i
Cc1ccnc2nc(C(=O)Nc3ccc(N4CCOCC4)cc3)nn12 | i
Cc1ccc(NC(=O)c2c(C)nc(Nc3nc4ccccc4o3)nc2C)cc1 | i
O=C(CN1CCN(S(=O)(=O)c2ccccc2)CC1)NC(=O)NC1CCCCC1 | i
COc1ccccc1CNC(=O)c1c(N)n(CCCN2CCOCC2)c2nc3ccccc3nc12 | i
CCOc1cc(CNC2CCCC2)cc(Cl)c1OCc1ccc(F)cc1 | i
Cc1cc(N=Cc2cc(Cl)ccc2O)no1 | i
CCCCNC(=O)c1cc2c(=O)n3cccc(C)c3nc2n(Cc2ccncc2)c1=N | 4.0
COc1ccc(OC)c(NC(=O)c2nnn(CCc3ccccc3)c2N)c1 | i
CCOc1ncccc1C(=O)OCC(=O)Nc1ncc(C(F)(F)F)cc1Cl | 0.6
CC1Cc2ccccc2N1C(=O)CCn1c(=O)oc2ccccc21 (configuration not stated) | 2.4
COc1ccccc1N1CCN(Cc2ccsc2)CC1 | 0.4
CCOCC(=O)Nc1nnc(Cc2ccc(OC)c(OC)c2)s1 | 0.9
O=C(c1ccccc1)c1cn[nH]c1-c1ccccc1O | i
COCCNC(=O)c1ccccc1NC(=O)C1COc2ccccc2O1 (configuration not stated) | i

# Next section.
structure | H5N1 CPE
C=CCn1c(SCC(=O)N2CCCC2)nc2cc(C(=O)NCC3CCCO3)ccc2c1=O (configuration not stated) | 0.9
COc1ccc(NC(=O)NCCN2C(=O)C3C4C=CC(C4)C3C2=O)cc1 (configuration not stated) | 1.3
O=C(CSc1nnnn1-c1ccc2c(c1)OCO2)NCc1cccs1 | i
COc1ccc(NC(=O)COC(=O)c2cnccn2)cc1Cl | i
COc1ccc(-c2c(C)n([O-])c(C)c(C)[n+]2=O)cc1 | 0.4
CCOC(=O)C1=C(N)N(c2ccccc2Oc2ccccc2)C(=O)C1 | i
CCOC(=O)c1c(-c2ccc(C)o2)csc1NC(=S)NC(=O)c1ccccc1Br | 1.8
CCOc1[nH]n(-c2ccccc2)c(=O)c1C=Nc1ccc(Cl)cc1 | i
CCCOn1nnnc1-c1ccccc1 | i
Cc1cccc(Nc2nc3c(c(=O)n(C)c(=O)n3C)n2Cc2ccccc2)c1 | 0.8
C=CCSc1nc(N)c2c(C)c(C)sc2n1 | i
O=C(NCCc1ccncc1)C12CC3CC(CC(C3)C1)C2 | 0.5
Cc1cc(OCC(=O)Nc2ccc3oc(-c4ccncc4)nc3c2)ccc1Cl | i
CC(C)OC(=O)CSc1nnc(CNc2nc(-c3ccccc3)cs2)n1C | i
O=C(O)c1cccnc1Oc1ccccc1 | i
CCn1c(CCNC(=O)c2ccc(Cl)c(Cl)c2)nnc1SCCOc1ccc(OC)cc1 | 1.3
Cc1ccc(-n2c(CCc3ccccc3)nnc2SCC(=O)NCc2ccccc2)cc1C | i
O=C(Nc1nccs1)c1cc2c(s1)-c1ccccc1OC2 | i
CN(C)S(=O)(=O)c1ccc(C(=O)Nc2ccc(F)cc2F)cc1 | i
CCCS(=O)(=O)C(=C1Nc2ccccc2N1)S(=O)(=O)CCC | 0.5
CCCCCCC1/C(=N/O)CCC1C(=O)OC (configuration not stated) | i
CSc1nsc(SC)c1NC(=O)OC1CCCCC1 | i
CC(/C=N/n1c(-c2cccnc2)n[nH]c1=S)=C\c1ccccc1 | 1.2
N#CCSc1nc(Nc2ccc3c(c2)OCO3)c2ccccc2n1 | i
CC(=O)c1cn(CC(=O)Nc2ccccc2)c2ccccc12 | 0.3
Cc1cc(-c2ccco2)n2c(nc3ccccc32)c1C#N | 1.8
COc1ccc(NC(=O)Cn2nnc(-c3ccccc3F)n2)cc1Cl | i
N#Cc1cc2c(nc1SCC(O)CS(=O)(=O)Cc1ccccc1)CCCC2 (configuration not stated) | 1.5
CCCCn1c(=O)c(Cc2ccccc2)c(O)c2ccccc21 | 0.1
CCOc1ccc(OCC)c(NC(=O)Nc2ccc3c(c2)N(C)C(=O)CS3)c1 | i
CCn1c(SCC(=O)c2cc(OC)ccc2OC)nnc1C(C)C | i
CC(=O)NC(O)C(=O)c1ccco1 (configuration not stated) | i
CCCCC(=O)NC1(C(F)(F)F)C(=O)N(Cc2ccco2)C(C)=C1C(=O)OC (configuration not stated) | 0.4
COc1ccc(CCNC(=O)c2cnn3c(C(F)F)cc(C)nc23)cc1OC | 1.7
O=C(CNC(=O)c1cccs1)OCC(=O)c1ccccc1 | 0.3
Cc1nn(C)c(C)c1CNC(=O)c1nn2c(c1Cl)NC(c1cccs1)CC2C(F)(F)F (configuration not stated) | i

# Continuation:
SMILES,H5N1 CPE
CN1CCN(S(=O)(=O)c2ccc(NC(=O)c3cccs3)cc2)CC1,4.0
COC(=O)c1ccc(NC(=O)CSc2nnc(-c3ccncc3)n2C)cc1,i
Cc1ccc(C)n1-c1ccc(N2CCOCC2)c(Br)c1,0.4
O=c1c2cc(N3CCOCC3)ccc2[nH]c(=S)n1Cc1cccc(Cl)c1,i
COCCn1c(SCc2c(F)cccc2Cl)nc2c1c(=O)[nH]c(=O)n2C,2.2
CCOC(=O)/C(C#N)=C/NC(=O)NC(C)(C)C,0.8
CCNS(=O)(=O)c1ccc(NC(=O)Cn2nc(C(F)(F)F)cc2C)cc1,0.2
O=C(Cn1nnc2c(cnn2-c2ccccc2)c1=O)N1CCN(c2ccccc2F)CC1,i
COc1ccc(/C=N/Nc2snc(SC)c2C#N)cc1OC,7.0
CCCCNC(=O)CC1N=C2c3ccccc3N=C(SCC(=O)Nc3ccc(OC)cc3)N2C1=O (configuration not stated),i
Cc1ccccc1CSc1n[nH]c(NS(=O)(=O)c2ccccc2)n1,0.7
CC(=O)NCCOc1nc(N(C)C)nc(N2CCOCC2)n1,i
Cc1cc(=O)[nH]c(-c2ccccc2)n1,0.6
C/C(=N\NC(=O)CC(C)C)c1ccc(Cl)c(Cl)c1,i
COc1ccc(C(=O)/C=C/Nc2cc(C)on2)c(OC)c1,0.2
CCCSCCCNC(=O)CC1Oc2ccccc2NC1=O (configuration not stated),0.4
CCOP(=S)(OCC)SCC(=O)NC(C)(CC)C(=O)O (configuration not stated),1.0
COc1ccc(-c2cc(C(F)(F)F)c(C#N)c(SCC(=O)Nc3nc(C)co3)n2)cc1,0.1
O=C(CCS(=O)(=O)c1ccc(Cl)cc1)Oc1ccc2c(c1)OCO2,0.9
COn1c2c(c3c4no[n+]([O-])c4ccc31)CCCC2,2.4
COc1ccc(C(=O)O/N=C/c2c(C(F)(F)F)nn(C)c2SCc2ccccc2Cl)cc1,i
CCOC(=O)c1cnn(CCOC(=O)Cc2cccs2)c1NC(=O)Cc1cccs1,i
Oc1ccc(Nc2nc(N3CCCC3)c3ccccc3n2)cc1,11
CC(C)OCC(O)CN (configuration not stated),0.6
O=C1OCCC1NC1=NCCC1 (configuration not stated),i
COc1ccccc1N1CCN(C(=O)CN(CCc2ccccc2)S(C)(=O)=O)CC1,i
c1ccc(COc2cccc(CN3CCN(c4ccccn4)CC3)c2)cc1,i
Cc1ccc(S(=O)(=O)N2Cc3ccccc3CC2C(=O)Nc2ccc3c(c2)OCO3)cc1 (configuration not stated),i
Oc1ccccc1C1=NCCNC(C(F)(F)C(F)F)=C1,2.5
COc1ccccc1-c1nnc(SCc2ccccn2)n1C,1.5
CNC(=O)CSc1nnc(COc2ccc(Cl)cc2)n1CCOC,0.8
CCC(C)NC(=O)c1ccc(NC(=O)C2CCCO2)cc1 (configuration not stated),i
CC1(C)CC(=O)C2=C(C1)N(CC1CCCO1)C(=O)NC2(C(F)(F)F)C(F)(F)F (configuration not stated),0.4
O=C(NCCc1ccccc1F)C1CCCN1S(=O)(=O)c1ccccc1 (configuration not stated),i
CCCNC(=O)c1cccc(COCC(F)(F)C(F)F)c1,0.4
CC1Oc2ccccc2N(CC(=O)N2CCCc3ccccc32)C1=O (configuration not stated),2.2
COc1ccc(NC2CC(=O)N(C(C)C)C2=O)cc1 (configuration not stated),i
CS(=O)(=O)NCCCNc1ccc(Cl)cc1[N+](=O)[O-],i
CCc1nnc(NC(=O)CSc2nnc(-c3ccc(OC)cc3)n2C)s1,i
Cc1ccc(C(=O)CN(C(=O)c2ccc(Cl)c(Cl)c2)N2C(=O)C3C4C=CC(C4)C3C2=O)cc1 (configuration not stated),0.3

# In the list so far, these contain an NH in an aromatic ring:
SMILES,H5N1 CPE
CC(=O)Nc1ccc2nc(-c3cccnc3)[nH]c2c1,0.4
CCCCn1c(N)c(N(CCC(C)C)C(=O)COC(=O)c2ccco2)c(=O)[nH]c1=O,i
O=C(CCCn1c(=O)[nH]c2cc(Cl)ccc2c1=O)NCCCN1CCCC1,0.9
CN(C)c1nc(N)nc(CSc2n[nH]c(-c3ccccc3)n2)n1,0.6
Cc1ccc(SCc2[nH]nc3c2C(c2ccc(C)o2)C(C#N)=C(N)O3)cc1 (configuration not stated),0.2
Cc1cc2nc(SC(C)C(=O)O)[nH]c2cc1C (configuration not stated),0.7
COc1cc2[nH]c(=S)n(NC(=O)CC(C)C)c(=O)c2cc1OC,2.0
Cc1ccc(SCc2cc(=O)[nH]c(/N=C(\N)Nc3ccc(C)c(C)c3)n2)cc1,0.4
O=C(NCCN1CCN(Cc2ccccc2)CC1)c1cc2c(=O)[nH]c3ccccc3c2s1,i
CCn1c(SCc2nc3ccccc3c(=O)[nH]2)nnc1-c1cccnc1,i
O=C(c1ccccc1)c1cn[nH]c1-c1ccccc1O,i
CCOc1[nH]n(-c2ccccc2)c(=O)c1C=Nc1ccc(Cl)cc1,i
CC(/C=N/n1c(-c2cccnc2)n[nH]c1=S)=C\c1ccccc1,1.2
O=c1c2cc(N3CCOCC3)ccc2[nH]c(=S)n1Cc1cccc(Cl)c1,i
COCCn1c(SCc2c(F)cccc2Cl)nc2c1c(=O)[nH]c(=O)n2C,2.2
Cc1ccccc1CSc1n[nH]c(NS(=O)(=O)c2ccccc2)n1,0.7
Cc1cc(=O)[nH]c(-c2ccccc2)n1,0.6

# An excerpt (hit frequency here may not be typical).
